# NPYLR7 ag = mosquito NPYLR7 agonism. activation, % at 10 µM. hit rate 0.15% among 270,000. AID 1259423. HEK293T NPYLR7/Galpha15, GCaMP6s calcium fluorescence; in the data active means activation above about 40%;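 further: 0% = vehicle and 100% = reference agonist at the receptor; some compounds past the cut are filed as inactive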
# NPYLR7 ag max-min = further read-out of NPYLR7 ag, marked with its call; activation, %; measured here: Max-Min RFU normalised activation; some inactives read as strong as hits;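 span of the calcium signal over five minutes; 0% = vehicle and 100% = native peptide agonist; compound fluorescence can raise it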
# * marks the source's active call; other numbers are inactive results; & = joins results of further samples. An excerpt; count on the stated rates, not on these rows.
Structure	NPYLR7 ag	NPYLR7 ag max-min
CCOC(=O)c1c(C)[nH]n2c(=O)cc(CN(C)C(C)C3CC3)nc12 (stereo not drawn)	-8	-8
Cc1nc2c(c(N3CCN(c4cccc(Cl)c4Cl)CC3)n1)CNC2	17	6
COc1ccc(-c2nccn2CCN2CCCCC2CO)c(C)c1C (stereo not drawn)	27	12
Cc1ccc(Cn2nnc3c(SCc4cccnc4)ncnc32)cc1	12	15
CCOc1c(C)cc(-c2ncccc2O)cc1C	2	-3
CC(C(=O)NC1CCCC1)N1CCC(c2cc(-c3ccco3)n[nH]2)CC1 (stereo not drawn)	13	4
CC(NC(=O)c1cccs1)C(=O)NC(C)C(=O)N1CCCC1 (stereo not drawn)	-1	-6
COc1ccc(C(O)C(=O)N2CCC(N3CCSCC3)CC2)cc1 (stereo not drawn)	0	0
COc1ccc(C2Nc3cccc4cccc(c34)N2)cc1OCc1ccccc1	1	-2
Cc1ccc(-c2cc(O)c3c(c2)CN(C(=O)Cn2cccnc2=O)CCO3)cc1	2	-3
CSc1ccccc1NC(=O)c1cc(=O)c(OCc2ccccc2)c[nH]1	0	-3
CCN(CC(=O)NC(C)(C)C)C(=O)c1cc(Cl)cc(Cl)c1	-2	0
COc1ccc(CCN2C(=O)N(C)C(=O)C23CCN(Cc2ccc(N4CCCC4)cc2)CC3)cc1	11	-5
Cc1ccc(Sc2ncccc2C(=O)N2CCNC(=O)C2)cc1C	3	2
Cc1cc(C)c(S(=O)(=O)N2CCN(C(=O)CCN3CCc4sccc4C3c3cccc(F)c3)CC2C)c(C)c1 (stereo not drawn)	11	1
CCOC(=O)c1c(C)nc2n(/N=C\c3ccccc3[N+](=O)[O-])c3ccccc3n12	4	0
Cc1ccc(Cn2cccc2CN(Cc2ccccc2C#N)C2CC2)cc1	29	40
CCc1csc(NC(=O)C(C)n2nc(C)cc2C)n1 (stereo not drawn)	-2	-4
COc1cc(C=CC(=O)N2CC(C(=O)N(C)C)Oc3ccccc32)ccc1OC(F)F (stereo not drawn)	4	-1
CC(CCN(C)Cc1ncc[nH]1)N1CCCC1 (stereo not drawn)	0	6
COc1ccc2[nH]cc(C3CCN(S(=O)(=O)c4ccccc4C(F)(F)F)CC3)c2c1	3	-3
CCn1ccnc1CNC(=O)c1coc(CN2CCN(Cc3ccccc3)CC2)n1	4	0
CCOC(=O)N1CCN(C(=O)CSc2nnc3n2CCN3c2ccccc2)CC1	0	-3
CC1(NC(=O)Nc2ccc(Br)cc2)CCCC1	12	7
COc1ccc(OC)c(-c2cnc(-c3ccc(CNC(=O)c4ccc([N+](=O)[O-])o4)cc3)[nH]2)c1	-3	5
CC1(C)CC(=O)C2C(=Nc3ccccc3NC2c2ccc(F)c(F)c2)C1 (stereo not drawn)	-9	-9
CC(=O)Nc1ccc(/C=C/C(=O)NS(=O)(=O)c2cccc(C#N)c2)cc1	9	7
CC(=O)Cn1c(=O)c2c(nc3n(-c4cccc(Cl)c4)c(C)c(C)n23)n(C)c1=O	-5	15
COc1cccc(-c2c(Nc3ccccc3)oc3c2c(=O)n(C)c(=O)n3C)c1OC	-5	-7
CCC(CC)NC(=O)C1CCN(S(=O)(=O)c2ccc(F)c(Cl)c2)CC1	1	5
CCCc1ccc(S(=O)(=O)Nc2cc(OC)c(OC)cc2C(=O)OC)cc1	0	27
O=C(c1cccs1)N(Cc1nccn1Cc1ccc(Cl)cc1Cl)CC1CCCO1 (stereo not drawn)	21	21
Cc1cc(Cl)ccc1C(=O)C1CCCN(Cc2cccn2-c2nccs2)C1 (stereo not drawn)	10	-3
CCOC(=O)Cn1c(C2CC(=O)N(c3ccccc3OC)C2)nc2ccccc21 (stereo not drawn)	3	-1
CCc1nc2ccc(C(=O)NCc3cccs3)cn2c1N(C)CCCc1ccccc1	22	18
c1cc(CNc2ncnc3ccsc23)cc(CN2CCCC2)c1	0	-3
CC(=O)O[C@H]1CC2(C)[C@@H](C[C@@H](O)[C@H]3[C@@]4(C)CC[C@@H](O)[C@@H](C)[C@@H]4CC[C@@]32C)/C1=C(/CCC=C(C)C)C(=O)O (stereo partly drawn)	1	-29
O=C(NC1CCC(C(F)(F)F)CC1)c1ccc(-n2ccnc2)nc1 (stereo not drawn)	-4	-4
COc1ccccc1/C=C/c1nn2cnnc2s1	1	1
CC(C)(C)c1ccccc1NC(=O)c1nc2ncccn2n1	0	-2

# Complete entries from above. Screens in order: NPYLR7 ag | NPYLR7 ag max-min
# c1cc(CNc2ncnc3ccsc23)cc(CN2CCCC2)c1 across the screens: 0 | -3
# CC(C)(C)c1ccccc1NC(=O)c1nc2ncccn2n1 across the screens: 0 | -2
# CCOC(=O)Cn1c(C2CC(=O)N(c3ccccc3OC)C2)nc2ccccc21 (stereo not drawn) across the screens: 3 | -1
# CC(=O)O[C@H]1CC2(C)[C@@H](C[C@@H](O)[C@H]3[C@@]4(C)CC[C@@H](O)[C@@H](C)[C@@H]4CC[C@@]32C)/C1=C(/CCC=C(C)C)C(=O)O (stereo partly drawn) across the screens: 1 | -29

# Given as labelled records: 4 of the compounds above.
CCc1nc2ccc(C(=O)NCc3cccs3)cn2c1N(C)CCCc1ccccc1
  NPYLR7 ag: 22
  NPYLR7 ag max-min: 18
c1cc(CNc2ncnc3ccsc23)cc(CN2CCCC2)c1
  NPYLR7 ag: 0
  NPYLR7 ag max-min: -3
CC(=O)O[C@H]1CC2(C)[C@@H](C[C@@H](O)[C@H]3[C@@]4(C)CC[C@@H](O)[C@@H](C)[C@@H]4CC[C@@]32C)/C1=C(/CCC=C(C)C)C(=O)O (stereo partly drawn)
  NPYLR7 ag: 1
  NPYLR7 ag max-min: -29
O=C(NC1CCC(C(F)(F)F)CC1)c1ccc(-n2ccnc2)nc1 (stereo not drawn)
  NPYLR7 ag: -4
  NPYLR7 ag max-min: -4

# More compounds.
Structure	NPYLR7 ag	NPYLR7 ag max-min
CC(Sc1nnc(C2CC2)n1C1CC1)C(=O)NC1(C#N)CCCCC1 (stereo not drawn)	2	19
CN(CC(=O)NC(C)(C)C)Cc1cc(Cl)c2ccccc2c1O	4	0
CCCCc1nc(N2CCN(C(=O)c3ccc([N+](=O)[O-])cc3)CC2)c2c(-c3ccccc3)noc2n1	-1	1
COc1ccc(-c2noc(CN(Cc3ccccn3)CC3CCCO3)n2)c(OC)c1OC (stereo not drawn)	3	0
NC(=O)C1(N2CCCCC2)CCN(Cc2cc3n(n2)CCNC3)CC1	11	8
O=C1NC2(CCCCC2)C(=O)N1CN1CCN(S(=O)(=O)c2ccc3c(c2)CCC3)CC1	4	1
C=c1occc1=C1NN=C(SCc2cc(=O)oc3cc(CC)ccc23)O1	1	2
COc1cc(C(=O)NN=Cc2ccc(Br)o2)cc(OC)c1OC	0	-3
COc1cccc2c1OCCCN(Cc1ccc(CO)o1)C2	-2	-3
CCOc1ccc(CN(Cc2nc(C(=O)NCc3cccnc3)co2)C(C)C(C)C)cc1 (stereo not drawn)	27	28
Cc1cn2c3c(=O)n(Cc4ccccc4F)c(=O)n(C)c3nc2n1CCOCCO	-3	32
COc1cc2c(cc1NC(=O)CSc1nnc(C)s1)oc1ccccc12	1	0
COc1ccc(-c2nonc2N)cc1	-1	0
O=C(CSc1ccc2nnc(-c3cccnc3)n2n1)Nc1ccc(C(F)(F)F)cc1	1	0
COc1ccc(C2=NCN(c3ccc(OC)cc3)C(=S)N2)cc1	-2	-2
C=CCn1c(SCc2ccc(Cl)cc2Cl)nnc1-c1cccc(C)c1	-5	0
Cc1cnc(CCNC(=O)c2ccccc2-c2ccccc2C#N)s1	6	3
COC(=O)c1cccc(N2C(=O)CC3CS(=O)(=O)CC32)c1 (stereo not drawn)	0	6
Cc1cccc(CN2CCN(Cc3cnc(N4CCCC4)nc3)CC2=O)c1	-4	-12
O=C(NCC1CCCO1)c1cccnc1N1CCN(C(=O)CCCOc2ccccc2)CC1 (stereo not drawn)	-4	-14
COCCCN(Cc1c(-c2ccccc2)noc1N1CCC(C)CC1)C(=O)COC	-1	4
O=C(C#Cc1ccccc1)N1CCCC(N2CCN(c3cccc(Cl)c3)CC2)C1 (stereo not drawn)	-1	-2
O=c1[nH]c(CNC2CCCCC2)nc2sc3c(c12)CCN(Cc1ccccc1)C3	6	15
CN1CCN(C(CNS(=O)(=O)c2ccccc2)c2ccsc2)CC1 (stereo not drawn)	-3	-10

# Further structures:
# Below each compound – NPYLR7 ag, NPYLR7 ag max-min
CC(NC(=O)CCc1ccsc1)c1ccc2c(c1)OCCO2 (stereo not drawn)
 : 5, 0
CC1CN(c2nc(NCc3ccc(Cl)cc3)nc(N)c2[N+](=O)[O-])CC(C)O1 (stereo not drawn)
 : 12, 5
O=C(/C=C/c1cccs1)N(CCCn1ccnc1)c1nc2ccccc2s1
 : -11, -16
COc1ccc(C)cc1N1CCN(C(=O)c2cccc(Cl)c2)C(C)C1=O (stereo not drawn)
 : -9, -7
O=C1NC2(CCN(Cc3ccc4c(c3)OCCO4)CC2)Nc2ccc(Br)cc21
 : 7, 18
Cc1ccc(OCCN2CCN(c3ncnc4sc(C)c(C)c34)CC2)cc1
 : 4, 2
Cc1cc(C)nc(SCc2cc(=O)c(OC(=O)c3cccc(F)c3)co2)n1
 : -16, -10
COC(=O)CCC(=O)N1CCN(CC(OCc2cccc(C)c2)c2ccc(Cl)cc2)CC1 (stereo not drawn)
 : 5, 0
C=CCn1cnc2c(cnn2-c2cccc(C)c2C)c1=O
 : 13, 7
NS(=O)(=O)c1cc(C(F)(F)F)ccc1F
 : 11, 5
CSc1nc(N(C)CCO)c2sc3c(c2n1)COC(C)(C)C3
 : -11, -16
Cc1ccc(NC(=O)Cc2nc(-c3ccc4c(c3)CCO4)cs2)c(C)c1
 : -3, 0
O=C(CN1CCCC1c1cccc(Br)c1)N1CCc2ccccc2C1 (stereo not drawn)
 : 9, 5
CN(Cc1cn[nH]c1-c1ccc(F)cc1)Cc1c(Cl)cncc1Cl
 : 16, 3
COCCN1CCCC2(CCN(C(=O)c3scc4c3OCCO4)C2)C1=O (stereo not drawn)
 : 12, 5
COc1ccc(Cl)c2sc(N(CCN(C)C)C(=O)c3ccccc3)nc12
 : 11, 6
CCn1ncc(CN(C)CC2CCCN(CCc3ccccc3OC)C2)c1C (stereo not drawn)
 : 7, 1
Cc1ccc(Cn2c(=O)c3ccc(C(=O)NC(C)C)cc3n3c(=O)n(C)nc23)cc1
 : 4, -1
CCOc1ncccc1NC(=O)N1CCOC(c2ccc(F)cc2)C1 (stereo not drawn)
 : -1, -3
CC1(C)CC(N2CCCC2)=CC(=[N+]2CCCCC2)C1
 : 6, 3
COc1ccc(C(=O)Nc2ccnn2C(C)C)cc1F
 : 8, 6
CCCCOc1ccc(-c2cc3c(=O)n(Cc4nc(-c5ccc(OC)cc5)no4)ccn3n2)cc1
 : 0, -5
Clc1ccc(Cc2nc(CSCc3ccccc3Cl)cs2)cc1Cl
 : 23, 18
CC(=O)Oc1cccc(C(=O)N2CCC(c3nc(-c4c(Cl)cccc4Cl)no3)CC2)c1C
 : 5, -1
Cc1ccc(S(=O)(=O)NC(=O)C2(C)CCN2C(=O)c2ccccc2CCc2ccccc2)nc1 (stereo not drawn)
 : 3, 0
COCC(=O)N1CCC(Oc2ccc(C(=O)NCCc3nc(C)cc(C)n3)cc2)CC1
 : 7, 5
CN(C)C(=O)N1CCN(C(=O)c2ccc(S(=O)(=O)N3CCCCC3)o2)CC1
 : 13, 9
CC(C)CN(CC(C)C)C(=O)c1cccnc1Nc1cccc(C(F)(F)F)c1
 : 8, -3
CCC(C(=O)N(CC(=O)c1c(C)c(C(=O)OC)n(CC)c1C)Cc1ccco1)c1ccccc1 (stereo not drawn)
 : -8, -7
C=C(C)Cn1c(=O)c2c(nc3n(-c4ccccc4F)c(C)cn23)n(C)c1=O
 : 4, -3
Cc1c(C(=O)OC2CCC(C)CC2)[nH]c2c1C(=O)CCC2 (stereo not drawn)
 : 4, -1
O=C(NC(c1ccccc1)c1cccc(F)c1)C1CCCOC1 (stereo not drawn)
 : -2, -3
COc1cccc(CCNC(=O)c2cnn(-c3nc(C)cc(=O)[nH]3)c2C)c1
 : 1, -1
Cc1c(CCOC(=O)c2ccccc2)sc[n+]1CC(=O)c1ccccc1
 : 4, 5
CCSc1nc(CC(=O)N(Cc2nccn2C)C2CC2)cs1
 : -2, -4
CCOC(=O)c1nc2ccccc2nc1N1CCN(C(=O)CCC2CCCC2)CC1
 : 15, 8
CCCc1c(C(=O)Nc2ccc(-c3cccc(-c4cccc(OC)c4)n3)cc2)cnn1-c1ccccc1
 : 0, 4
CN(CCC1CCOCC1)C(=O)c1cc(COc2cccc(F)c2)[nH]n1
 : 3, 2
CCN(CC)C(=O)CCCn1nc(C)n2c(cc3sccc32)c1=O
 : 8, 6
COCc1c(Br)c(C)nc(OCC(=O)N/N=C\c2cc(Br)c(OCc3cccc4ccccc34)c(OC)c2)c1C#N
 : 8, 14
Cc1[nH]n2c(=O)cc(C(C)C)nc2c1-c1ccc(F)cc1
 : -5, -6
CCOC(=O)C1=C(CN2CCCCC2C)NC(=O)NC1c1ccc(OC)cc1 (stereo not drawn)
 : 6, 1
O=C(c1cccnc1Oc1ccc(Cl)cc1)N1CCC2(CC1)OCCCO2
 : -7, -15
O=C(C1CCCC1)N1CCN(c2nc(-c3ccccc3Cl)nc3cc(Cl)ccc23)CC1
 : 7, 14
CC1(C)O[C@@H]2C[C@@](OCc3ccccc3F)(C(=O)NCCN3CCCC3)CC(OCc3ccc(C(F)(F)F)cc3)[C@@H]2O1 (stereo partly drawn)
 : -1, 6
COC(=O)CCCC(=O)N1CCN(c2nc3nccc(-c4cc(Cl)ccc4Cl)n3n2)CC1
 : 4, 0
O=C(C1CCCN(S(=O)(=O)N2CCOCC2)C1)N1CCN(C2CCCCC2)CC1 (stereo not drawn)
 : 4, 0
O=C(CSc1ccc(-c2ccc3c(c2)OCO3)nn1)N1CCCCC1
 : 2, 2
COc1cccc(N=C2SC(C(=O)Nc3ccc(C(=O)O)cc3)CC(=O)N2C)c1 (stereo not drawn)
 : 1, -1
COc1cccc(N2CC(CNC(=O)NC(c3ccccc3)c3ccccc3)OC2=O)c1 (stereo not drawn)
 : 2, 13
COc1ccc(N(CC(F)(F)F)C(=O)CCl)cc1
 : 5&10, 2&7
